# Screening results from PubChem.
# PABP FP inh: PABP-poly(A) binding inhibition. P11940. PABP-poly(A) RNA binding, fluorescence polarization. inhibition, % at 35 µM. 290,000 tested, 1% active. AID 2014;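 active = 50% or more with normal probe brightness, or confirmed in later tests; inconclusive = above 50% with abnormal brightness, or retests that disagree; inactive = below 50% or failed in later tests; about a fifth of its hits are not listed in these tables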;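 note: calls also rest on retests at 20 µM and on dose response follow-up; controls were probe without protein and protein plus probe with vehicle; some compounds called inactive have numbers as strong as hits; many hits fall short of the cut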
# Rce1 inh: yeast Ras-converting enzyme inhibition. Q03530. yeast membranes, quenched prenylated peptide cleavage fluorescence. calls only. 290,000 tested, 0.27% active. AID 2563;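 active = fall in fluorescence gain of 50% or more versus controls, with final raw signal at or below 3038400; inconclusive = same 50% fall but final raw signal above 3038400; inactive = fall in fluorescence gain under 50%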;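 note: plate controls were neutral control wells for no effect and wells lacking membranes for full effect; tested at 10 µM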
# Target sequence (Q03530 whole entry, looked up): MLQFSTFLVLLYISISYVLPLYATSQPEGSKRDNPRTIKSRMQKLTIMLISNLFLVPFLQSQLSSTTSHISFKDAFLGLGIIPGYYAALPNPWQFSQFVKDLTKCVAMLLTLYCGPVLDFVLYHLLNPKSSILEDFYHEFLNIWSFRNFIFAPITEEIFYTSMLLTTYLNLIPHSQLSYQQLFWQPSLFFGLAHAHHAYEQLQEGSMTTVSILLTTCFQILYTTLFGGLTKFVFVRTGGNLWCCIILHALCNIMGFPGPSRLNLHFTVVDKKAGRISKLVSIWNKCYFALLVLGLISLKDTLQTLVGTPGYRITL
# eIF4H inh: inhibitors of RNA binding by human eIF4H | Q15056 | eIF4H fluorescence polarization binding assay | inhibition, % at 35 µM | 290,000 tested, 0.94% active | AID 2012;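 active = 50% or more with normal probe brightness, or confirmed in later tests; inconclusive = above 50% with abnormal brightness, or retests that disagree; inactive = below 50% or failed in later tests; about a fifth of its hits are not listed in these tables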;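 note: calls also rest on retests at 20 µM and on dose response follow-up; 0% = protein and probe with vehicle and 100% = probe without protein; strong numbers were not always called active; many hits fall short of the cut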
# Yeast UUG start: modulators of start codon recognition fidelity in yeast; AID 602363; S. cerevisiae UUG-firefly luciferase reporter, luminescence/redox ratio; activity score, % at 18.7 µM; 350,000 tested, 0.13% active;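 active = replicate mean at a twofold rise or more, about +100% in these data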;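 note: firefly luciferase made from a UUG start codon reports start codon fidelity; reporter light over untreated wells divided by growth signal over untreated wells; some hits fall short of that in this replicate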
# HIV Env fusion: inhibitors of HIV Env-mediated cell fusion; HeLa-JRFL Env/CEM21 cell fusion, luciferase; 360,000 tested, 1.1% active; inhibition, % at 12.3 µM;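 active = mean replicate inhibition score of at least 50 and every replicate individually at or above 50; inconclusive = only one of the two criteria met; inactive = mean below 50 and not all replicates reaching 50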;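 note: 0% = plate neutral controls and 100% = maraviroc near 300 nM; one replicate is shown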
# MT1-MMP act inh: blocks activation of human MT1-MMP; HT1080 RFP-PRO-GFP cells, GFP/RFP ratio fluorescence, overnight; percent of plate control window, DMSO zero; GFP/RFP ratio change, % at 20 µM; 360,000 tested, 0.061% active; AID 651647;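 active = GFP/RFP ratio change of at least 30% with cell ATP level not reduced by more than half and red fluorescence within 50% of control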; note: strong numbers were not always called active
#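 Test system: HT1080 RFP-PRO-GFP cells; Benchmarks: DMSO and RFP-L50D-GFP cell wells; Timing: cells overnight before dosing, compound overnight, 37 °C, 5% CO2; Compound: one 20 µM compound dose with 1% DMSO; Read-out: GFP/RFP fluorescence ratio.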
# CSC inhib: cancer stem cell inhibition. cancer stem cell-like cells viability, luminescence. inhibition, % at 7.5 µM. 300,000 tested, 1.1% active. AID 2717;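 active = mean at 75% or more and at least half the replicates too; inconclusive = mean and replicates disagree; tested in HMLE shEcad cells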;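 note: 0% = median of negative and 100% = median of positive control wells; the first replicate is given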
# eIF4H inh retest: second read-out of eIF4H inh, no call of its own (marks repeat the call); inhibition, %; compound at 20 µM; confirmation average;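 mean of two retest wells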
# PABP FP inh retest: further read-out of PABP FP inh, marked with its call; inhibition, %; compound at 20 µM; confirmation repeats;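 mean of two retest wells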
# MT1-MMP act inh RFP: second read-out of MT1-MMP act inh, no call of its own (marks repeat the call); RFP signal change, %; measured here: RFP expression control read;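 0 = vehicle wells; hits needed this value within 50% of zero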
# * = called active by the depositor; i = inactive; ? = inconclusive; . = no result given.
SMILES,PABP FP inh,Rce1 inh,eIF4H inh,Yeast UUG start,HIV Env fusion,MT1-MMP act inh,MT1-MMP act inh RFP,CSC inhib,others
COc1cc(NC(=O)COC(=O)c2cnc(C)cn2)c(C)cc1[N+](=O)[O-],4,i,1,8,12,-1,7,-1,
C#CCOCCOCCOCCNc1nc(N2CCOCC2)nc(N2CCN(C(=O)[C@H](CCC(=O)O)n3cc(C(N)Cc4ccc(O)cc4)nn3)CC2)n1 (stereo partly specified),2,i,4,4,.,-2,2,-6,
CC1=NN(C(=O)c2ccc(Cl)cc2)C(O)(c2ccccc2)C1 (stereo unspecified),1,i,6,-4,0,0,2,-17,
CCCCCOc1ccc(C(=O)CCN2CCOCC2)cc1,-1,i,-11,-18,-24,1,-1,9,
CCN(CC(=O)NCc1ccc(Cl)cc1)C(=O)/C=C/c1cccs1,-4,i,-5,1,3,1,-3,-12,
COC(=O)Cn1cc(/C=N/NC(=O)c2ccc(C#N)cc2F)c2ccccc21,-1,i,-6,-17,-8,-1,2,-13,
COc1ccc(C2=NC(c3ccccc3)CO2)cc1 (stereo unspecified),2,i,-2,.,.,.,.,-8,
O=C(C1CC(=O)N(C2CCCCC2)C1)N1CCN(c2cccc(C(F)(F)F)c2)CC1 (stereo unspecified),-8,i,-2,-8,21,-2,-11,-6,
CCC1Sc2ccc(S(=O)(=O)CCC(=O)Nc3ccccc3Cl)cc2NC1=O (stereo unspecified),.,i,.,-15,0,1,-1,-7,
O=C(CSc1ccc(-c2ccccn2)nn1)NCc1ccc(F)cc1,0,i,1,.,4,-1,0,-12,
CCCc1n[nH]c2c1C(=O)CC(C)(C)C2,-1,i,3,-7,.,5,4,-13,
O=C(NCc1ccc2c(c1)OCO2)c1cccc2c1C(=O)N(C1CCCCC1)C2,-18,i,-3,-10,28,0,-2,-4,
COc1ccc(CC(=O)Nc2cccc(-c3csc(C)n3)c2)cc1,-1,i,2,-13,.,3,-4,-4,
C=CCn1c(CCSCc2ccccc2)n[nH]c1=S,-11,i,-7,.,-2,1,-5,-7,
O=C(NC1CC1)c1cc2c(F)cccc2s1,0,i,-3,.,25,2,-9,-11,
CCOC(=O)c1[nH]ncc1CN1CCC(Cc2ccccc2)(C(=O)OCC)CC1,7,i,6,-13,6,0,-3,-5,
S=C(Nc1ccccc1)N1CCN(c2ccc(N3CCOCC3)nn2)CC1,11,i,-5,.,5,-3,-1,-5,
COc1ccc(/C=C2\C(=N)N3N=C(CC(=O)N4CCCCC4)SC3=NC2=O)cc1,4,i,-10,-10,-14,0,4,4,
c1ccc(CSCc2cn3ccsc3n2)cc1,0,i,-2,-10,.,7,4,-7,
O=C(c1ccc(-c2ccccc2)cc1)N1CCN(C(=O)c2ccco2)CC1,-5,i,-4,13,.,-1,-9,-2,
CCCCNS(=O)(=O)c1cccc(NC(=O)[C@H]2C[C@H](O)[C@@H](CO)O2)c1,.,.,.,-13,8,-2,5,.,
COc1ccc(NC(=O)CS(=O)CC(=O)Nc2cc(Cl)ccc2OC)cc1 (stereo unspecified),6,i,0,-8,13,5,0,.,
CCCCN=Cc1sc2ccc(OCC)cc2c1O,-1,i,5,0,-83,-2,-1,0,
CC(C)c1nc2c(c(=O)n(C)c(=O)n2C)n1C,4,i,11,.,1,-2,1,2,
Cc1ccc(S(=O)(=O)N2[C@@H](c3ccc(Br)cc3)C(C(=O)O)=CC[C@H]2c2ccc(Cl)c(Cl)c2)cc1,.,.,.,4,-16,-4,-7,.,
O=C(Cc1cccc(NC(=O)C2CCCN(C(=O)C3CC3)C2)c1)Nc1cccc(C(=O)N2CCOCC2)c1 (stereo unspecified),.,.,.,-8,-15,2,2,.,
O=C1CCC([N+](=O)[O-])C(c2ccc(Cl)cc2)N1 (stereo unspecified),-7,i,-3,-5,-35,7,6,7,
Cc1cc(/C=C2\SC(=S)NC2=O)c(C)[nH]1,36,.,47,0,-19,-52,14,6,
O=C(COC(=O)C1COc2ccccc2O1)NC(=O)NC1CCCC1 (stereo unspecified),5,i,-7,3,.,0,6,.,
C=CCc1ccccc1OCC(O)CN1CCN(c2ccc(C)cc2)CC1 (stereo unspecified),2,i,-3,0,-45,2,3,24,
O=C(NN1C(=O)C2C3CCC(O3)C2C1=O)c1ccco1 (stereo unspecified),-14,i,0,-14,.,4,11,-4,
O=C(CSC(=S)N1CCOCC1)Nc1nccs1,9,i,5,.,-3,-3,7,-4,
Cc1c(Nc2cc(N3CCOCC3)c3nonc3c2[N+](=O)[O-])c(=O)n(-c2ccccc2)n1C,-1,i,-1,.,.,.,.,13,
CCOc1ccccc1CNC(=O)c1cc2oc3ccccc3c2n1CC,-1,i,0,2,6,-14,-7,49,
COc1cc([N+](=O)[O-])ccc1NC(=O)NNC(=O)c1sccc1C,-6,i,11,-7,-6,0,3,10,
Cc1ccccc1OCC(=O)N(CC(C)C)c1c(N)n(CC(C)C)c(=O)[nH]c1=O,-5,i,0,.,14,2,-2,1,
Cc1cccc(N=C2NN=C(c3ccccc3F)CS2)c1C,13,i,7,.,5,-10,-9,-11,
CCCC(=O)Nc1ccc(C(=O)/C=C/c2ccc(SC)cc2)cc1,2,i,-2,-16,.,0,-1,0,
Cc1ccc(NC(=O)CC2C(=O)NC3CCCCC3N2C(=O)c2ccc(F)cc2)cc1C (stereo unspecified),3,i,-2,-2,.,7,-3,-14,
CCOc1ccc(NC(=S)N2CCCN(Cc3cccc(Cl)c3)C2)cc1,-12,i,0,.,-113,0,-2,-9,
COc1cc(C(=O)N2CCSCC2)ccc1OC1CCN(C(C)=O)CC1,-4,i,4,-16,2,-6,2,-14,
COc1cccc(CN2CCNC(=O)C2CC(=O)NCc2cn3ccc(C)cc3n2)c1OC (stereo unspecified),-1,i,-2,-7,13,-6,1,-17,
CCNC(=S)NNc1nncc2ccccc12,3,i,-20,.,0,1,0,-10,
CS(=O)(=O)N1CCCC(C(=O)NCCN2CCC(Cc3ccccc3)CC2)C1 (stereo unspecified),-6,i,-1,-4,-29,3,0,-2,
COc1ccccc1CNC(=O)CN(c1ccc(C)cc1)S(=O)(=O)c1c(C)n[nH]c1C,-5,i,-15,-9,-1,-6,-2,2,
CCOC(=O)c1c(-c2ccc(F)cc2)csc1NC(=O)CN1C(=O)NC2(CCCCC2C)C1=O (stereo unspecified),0,i,-6,-13,-1,0,0,14,
Cc1ccc(NNC(=O)c2ccno2)cc1C,10,i,-13,.,-3,-2,-2,67,
COc1ccc2nc(NNC(=O)c3cc(=O)c4ccccc4o3)sc2c1,-8,i,7,-5,-28,-3,10,9,
CSc1ccccc1C(=O)Nc1cccc(C(C)=O)c1,-6,i,-4,.,-38,5,0,.,
Cn1c(C(=O)NCCN2CCOCC2)cc2sccc21,-1,i,0,-12,-21,0,-2,-4,
CCn1cc(C(=O)N[C@@H](CC(C)C)C(=O)NCCCn2ccnc2)c(=O)c2cc3c(cc21)OCO3,2,i,3,-5,10,0,3,-3,
Cc1c(N/C=C(\Cl)C(=O)C(F)(F)F)c(=O)n(-c2ccccc2)n1C,1,i,1,.,26,0,3,-10,
COc1cc(/C=C2\SC(=S)N(CC(=O)NC3=NCCS3)C2=O)cc(OC)c1OC,-14,i,55,.,-27,8,5,3,eIF4H inh retest=-1;PABP FP inh retest=-8
Cc1ccc(OCC(=O)NCCN2CCOCC2)cc1C,2,i,-3,.,.,-5,-2,-10,
COc1ccc(NC(=O)N2CCCC(c3nc(-c4ccc(C(C)C)cc4)no3)C2)cc1 (stereo unspecified),21,.,-8,-10,29,-4,-17,96*,
CCC(=O)NC(=S)Nc1cccc(-c2nc3ncccc3o2)c1,-10,i,2,.,.,5,8,.,
Cc1ccc(CNC(=O)CSCc2ccc(F)cc2)cc1,-8,i,3,.,-13,2,3,0,
Cc1ccc(OCCn2cnc3ccccc3c2=O)c([N+](=O)[O-])c1,-7,i,-8,.,.,0,-4,-2,
O=C(NN=Cc1ccc(O)cc1O)c1ccccc1NS(=O)(=O)c1cccs1,.,.,.,-12,-3,3,1,-5,
COc1ccc(-c2cc3ccccc3n2CC(O)CN2CCCCC2)cc1 (stereo unspecified),9,i,19,-5,-5,0,0,-3,
# (listing goes on)
SMILES,PABP FP inh,Rce1 inh,eIF4H inh,Yeast UUG start,HIV Env fusion,MT1-MMP act inh,MT1-MMP act inh RFP,CSC inhib,others
COc1ccc(NC(=O)CSc2nc(O)c(Cc3ccccc3)c(=O)[nH]2)cc1,3,i,2,-12,-18,-3,4,.,
COC(=O)C[C@H]1c2cc(F)ccc2S(=O)(=O)N1Cc1ccccc1,.,i,.,-12,12,9,1,-39,
OC(COC1CCCCC1)CN1CCN(c2ccccc2)CC1 (stereo unspecified),4,i,2,-8,-3,0,7,7,
CN(c1cccc(NC(=O)CN(c2ccc(Cl)c(Cl)c2)S(=O)(=O)c2ccccc2)c1)S(C)(=O)=O,-5,i,0,.,-27,-5,-8,45,
Cc1cccc(-c2nc(C#N)c(N3CCC(C)CC3)o2)c1,4,i,-11,-15,-43,3,2,-9,
CCOc1ccccc1NC(=O)C1CCCCN1S(=O)(=O)c1ccc(F)cc1 (stereo unspecified),-8,i,-2,8,.,3,-2,-14,
CCOC(=O)c1c(NC(=O)c2c(-c3ccccc3)noc2C)sc(C)c1-c1ccccc1,2,i,-4,4,.,-9,-15,40,
CN(C)Cc1ccc(F)cc1Sc1cc(Cl)ccc1Cl,7,i,7,.,-6,-9,-1,-6,
O=c1[nH]c(C2CC2)nc2sc3c(c12)CCCC3,-4,i,-5,.,-5,-1,4,-10,
CCN(CC)c1ccc(/C=N/NC(=O)C(O)c2ccccc2)cc1 (stereo unspecified),0,i,-1,-26,5,-5,-2,20,
COc1cccc(N/C(=N/C(=S)Nc2ccc(C)cc2C)Nc2nc(C)cc(C)n2)c1,-7,i,-12,6,-18,1,-8,27,
O=C(Cn1cnc2c(cnn2-c2ccc(Cl)cc2)c1=O)NC1CCCCC1,1,.,-7,17,-5,3,3,-1,
CCOc1ccc(-n2c(SCC(=O)Nc3ccc4c(c3)OCO4)nc3ccccc3c2=O)cc1,8,i,-3,-8,-24,-3,-4,-9,
COc1ccc(Cc2n[nH]c(=S)n2Cc2ccccc2)cc1Cl,-2,i,-2,-18,9,3,-11,4,
C=CCN1C(=O)/C(=C/C=C2/N(CC)c3ccc(S(=O)(=O)N(C)C)cc3N2CC)SC1=S,?,i,?,.,28,-15,64,6,
CCOC(=O)C1CCCN(C(=O)Cn2c(=O)c3cccn3c3cccnc32)C1 (stereo unspecified),19,i,19,-6,1,-4,0,-6,
CCCCC(=O)Nc1nnnn1CCC,-3,i,-3,.,.,3,8,-2,
CC(=O)N1N=C(c2ccco2)CC1c1cccs1 (stereo unspecified),6,i,-3,-1,-37,0,0,14,
CC(C)CC(N)c1csc(Nc2cnccn2)n1 (stereo unspecified),.,.,.,-11,7,-7,2,.,

# By substructure, the entries above with a cyano group
SMILES,PABP FP inh,Rce1 inh,eIF4H inh,Yeast UUG start,HIV Env fusion,MT1-MMP act inh,MT1-MMP act inh RFP,CSC inhib,others
COC(=O)Cn1cc(/C=N/NC(=O)c2ccc(C#N)cc2F)c2ccccc21,-1,i,-6,-17,-8,-1,2,-13,
Cc1cccc(-c2nc(C#N)c(N3CCC(C)CC3)o2)c1,4,i,-11,-15,-43,3,2,-9,
